VDR inhibitor = blocks the human vitamin D receptor; actives 0.93% (n = 400,000); P11473; VDR-SRC2-3 peptide fluorescence polarization, 2 h; Potency, µM, without a hit: max response, negative = inhibition, usual class: inhibitors; active = well fitted inhibition curve with a large enough effect; inconclusive = small, poorly fitted or top-dose-only effect, or another doubt; inactive = no such curve, though single readings can be large or run the other way; also: series mostly up to about 120 µM
Target sequence (P11473 whole entry, looked up): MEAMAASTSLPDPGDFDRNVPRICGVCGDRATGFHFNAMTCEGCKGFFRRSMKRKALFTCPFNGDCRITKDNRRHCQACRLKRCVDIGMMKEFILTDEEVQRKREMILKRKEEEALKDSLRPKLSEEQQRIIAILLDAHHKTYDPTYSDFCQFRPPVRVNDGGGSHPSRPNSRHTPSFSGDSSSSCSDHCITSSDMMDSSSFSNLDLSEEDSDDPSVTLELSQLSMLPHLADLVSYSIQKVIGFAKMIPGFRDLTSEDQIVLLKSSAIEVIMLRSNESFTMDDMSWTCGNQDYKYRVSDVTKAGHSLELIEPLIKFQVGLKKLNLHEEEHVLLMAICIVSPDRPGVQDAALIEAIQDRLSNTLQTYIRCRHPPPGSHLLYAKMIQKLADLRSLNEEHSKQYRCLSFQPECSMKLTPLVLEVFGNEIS
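Inhibition of the VDR/SRC2-3 peptide interaction is quantified by fluorescence polarization. Compounds (23 nl, pintool) incubate with the reagents for 2 hours at ambient room temperature.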
The depositor's hits bear a star; ? = inconclusive; & = joins results of further samples. % is scaled to controls: 0 for no effect and ±100 for the full control effect; potency is read from the fitted curve at half-maximal effect. Not all compounds are listed. The share of hits here may be higher or lower than overall.

VDR inhibitor	Structure
-8%	N#C/C(=C\c1c(N2CCCCC2)nc2ccccn2c1=O)C(=O)NC1CCS(=O)(=O)C1 (stereo not drawn)
-22%	O=C(NCCNCc1cccs1)c1ccccc1F
12%	Cc1ccc(C)n1-c1ccc(-c2nnc3n2CCCCC3)s1
1%	COC(=O)c1cc(C(=O)CSc2nc(C)cc(C)n2)ccc1O
3%	O=S(=O)(NCCS(=O)(=O)N1CCN(c2ccccc2)CC1)c1ccc(Br)cc1
18%	Cc1ccc(-n2ncc3c(N4CCC(C(N)=O)CC4)ncnc32)c(C)c1
3%	COc1ccc(N2CCN(C(=O)Cc3ccc(C)cc3)CC2)cc1
4%	COc1ccccc1CNC(=O)c1cnc2c(-c3ccccc3)c(C)nn2c1C
17%&-19%	CCCCCCCCCCCCCCCC[n+]1cccc(C(=O)N(CC)CC)c1
-12%	Cn1c(=O)c(=O)n(C)c2cc(N3CCCC3)c(NS(=O)(=O)c3ccc(F)cc3)cc21
?	CNc1nc(NC#N)nc(SC)n1
6%	COC(=O)CNC(=O)C1CCCN1C(=O)OC(C)(C)C (stereo not drawn)
-4%	COc1ccc(C(C)NC(=O)CCc2ccccc2)cc1 (stereo not drawn)
-5%	Cc1ccc(N2C(=O)C3C4CC(=O)C(c5ccccc54)C3C2=O)cc1C (stereo not drawn)
-18%	CCOC(=O)c1c(NC(=O)COc2ccccc2)sc2c1CC(C)(C)NC2(C)C
?	Cc1nn(-c2cccc(Cl)c2)c2c1C(c1cccnc1)C(C#N)=C(N)O2 (stereo not drawn)
-7%	COc1ccccc1NC(=O)c1sc2nc3n(c(=O)c2c1C)CCC3
-7%	CN(C)S(=O)(=O)c1ccc(C(=O)NNC(=O)C23CC4CC(CC(C4)C2)C3)cc1
1%	CCOC(=O)[C@H]1[C@H]2COc3ccc(Cl)cc3[C@@H]2N2C(=O)c3ccc(C)cc3NC(=O)[C@@]12C
-25%	CCOC(=O)c1cc2c(=O)n3ccccc3nc2n(Cc2ccco2)c1=NC(=O)c1ccc(C(C)(C)C)cc1
-21%	CCCCN(CCCNC(=O)c1c(C)cc(=O)oc1C)c1ccccc1
-9%	Cc1cccc(OCC(=O)NNC(=O)c2cc3ccccc3oc2=O)c1
-7%	CCOc1ccccc1C(=O)Nc1cc2c(cc1N1CCCC1)n(CC)c(=O)n2CC
10%	Cc1cc2nccc(-c3ccc(OCCCF)cc3)n2n1
10%	CC(C)C(=O)Nc1c2c(nn1-c1ccc(F)cc1)CSC2
20%	O=C(CNc1ccccc1)N/N=C/c1c(O)ccc2ccccc12
-5%	CCN(C(=O)CSc1ncccn1)c1c(N)n(Cc2ccccc2)c(=O)[nH]c1=O
-21%	COc1cc(Br)c(-c2sc(Nc3ccccc3)n[n+]2-c2ccccc2)cc1OC
-19%	CCN(CC)C(=O)c1ccc2c(c1)nnn2C
6%	CN(C)S(=O)(=O)N(CC(=O)Nc1ccc(C(F)(F)F)cc1)c1ccccc1
-22%	Cc1nn(-c2ccccc2)c(Cl)c1/C=N/NC(=O)c1cccnc1
-1%	COc1cccc([C@@H]2Oc3ccc(Br)cc3C[C@H]2OC(=O)Nc2cc(OC)c(OC)c(OC)c2)c1
19%	CCOCN(C(=O)Cn1c(CO)nc2ccccc21)c1c(C)cccc1CC
3%	O=C(NC1(C(=O)NC2CCCCC2)CCCCC1)c1ccc2c(c1)OCO2
?	CNc1ccccc(C(=O)/C=C/c2ccccc2OC)c1=O
-6%	CC1Cc2cccc3ccc(=O)n(c23)C1 (stereo not drawn)
8%	O=C(Nc1ccc(F)cc1)Nn1cnnc1
-15%	COC(=O)c1ccc([N+](=O)[O-])cc1N1C(=O)C2C3CCC(C3)C2C1=O (stereo not drawn)
-12%	CCOC(=O)c1c(C)cc(=O)oc1C
0%	O=C(COC(=O)C1CCC(=O)N1)Nc1ccccc1OC(F)F (stereo not drawn)
-14%	S=C(NC1CCCCC1)N1CCN(C2CCCCC2)CC1
10%	Cc1cc(N2CCN(C)CC2)nc2ccc(NC(=O)Nc3ccccc3Br)cc12
5%	N#Cc1c(N)nc2c(c1-c1ccc(F)cc1)CCC2
3%	O=c1c(-c2cccc(F)c2)nc2cncnc2n1C1CC1
-7%	Nc1c(-c2ccc(Cl)cc2)cnn1-c1ccccc1
15%	O=C(NC(=S)N1CCOCC1)c1cc2ccccc2o1
2%	c1ccc(-n2ncc3c(NCc4cccnc4)ncnc32)cc1
4%	CC(=O)Nc1cc(C(=O)OCC(=O)c2ccc(Cl)cc2Cl)ccc1C
-5%	O=C(NCCc1ccccc1)C(=O)c1c(-c2ccccc2)[nH]c2ccccc12
-14%	COc1ccc(C2/C=C\CN(C(=O)C3CCCC3)C(C)C(=O)N2Cc2ccc(F)cc2)cc1 (stereo not drawn)
-11%	COc1ccc(-c2nn3c(-c4ccccc4)nnc3s2)cc1
-11%&-21%	COc1cc(OC)c2ccc(=O)oc2c1C(CC(=O)N1CCOCC1)c1ccc2c(c1)OCO2 (stereo not drawn)
2%	COc1ccc(-n2c(SCC(=O)Nc3ccccc3C)nc(O)c(Cc3ccccc3)c2=O)cc1
17%	O=C(O)c1ccc(CSc2nnc(COc3ccccc3)o2)cc1
-14%	O=S(=O)(Cc1ccccc1Cl)NCCc1ccccc1
8%	COCCCN(Cc1ccccn1)S(=O)(=O)Cc1ccccc1
19%	Cc1ccc(/C=C2\SC(=O)N(CCC(=O)N3CCN(C)CC3)C2=O)cc1
14%	CNC(=O)C1CC(=O)N(c2ccc(OCC(=O)N3CCCC3)cc2)C1 (stereo not drawn)
?	O=C(CC1CCCCC1)NCCOc1ccccc1
7%	CCCCN(C)C(=O)c1ccc2c(c1)N(Cc1cccc(F)c1)C(=O)c1ccccc1S2

Following part:
VDR inhibitor	Structure
16%	CCN(CC)S(=O)(=O)c1ccc(C(=O)Nc2nnc(COC)o2)cc1
-11%	CN(CC1CCOCC1)C(=O)CC1C(=O)NCCN1Cc1ccc(Cl)c(F)c1 (stereo not drawn)
-17%	CCN(CC)c1ccc(NC(=S)NC(=O)Cc2ccccc2)cc1
8%	COc1ccc(-c2nc(C)c(CCNC(=O)Cc3ccc(F)cc3)s2)cc1OC
-9%	COc1ccc(NC(=O)CN2C(=O)COc3ccccc32)cc1OC
-19%	Nc1c(C(=O)NC2CCCC2)sc2nc(-c3cccs3)ccc12
17%	Clc1cccc(Nc2ncnc3ccc(Br)cc23)c1
-2%	Fc1ccc(CNc2ccc(N3CCN(Cc4ccccc4)CC3)cc2)cc1
22%	COc1ccc(-c2cn(-c3ccc(C)c(Cl)c3)c(=S)[nH]2)cc1OC
-6%	COc1ccccc1NCCC(=O)OCC(=O)Nc1cc([N+](=O)[O-])ccc1F
-20%	COc1cc2c(cc1N/C=C(\C#N)c1nc(-c3ccccc3)cs1)oc1ccccc12
-2%	COc1ccccc1Cn1c(=S)[nH]c2cc(C(=O)N3CCN(c4ccccc4OC)CC3)ccc2c1=O
1%	O=C(O)c1cccc(NS(=O)(=O)c2cccc3nsnc23)c1
-7%	COc1ccc(NS(=O)(=O)c2cccc(NC(=O)COc3ccccc3[N+](=O)[O-])c2)cc1
-26%	Nc1c(C(=O)O)sc2nc3c(cc12)CCCC3
13%	CCOC(=O)c1ccccc1NC(=O)CSc1cn(CC(=O)N2CCCCCC2)c2ccccc12
1%	Cc1ccc(C(C)C)c(OCC(=O)OCc2c(C)noc2C)c1
-15%	CN(C)/C=C(\C(=O)c1cccc(Cl)c1)c1nnnn1-c1ccccc1
-2%	O=C(CCN1CCN(CCO)CC1)Nc1ccccc1
-5%	CN(C)c1nc(OCCOC(=O)Nc2ccc(Cl)cc2Cl)nc(N(C)C)n1
-3%	COc1ccccc1CCn1c(=O)c(-c2cccc(F)c2)nc2cncnc21
6%	O=C(NCC(=O)N1CCN(S(=O)(=O)c2cccs2)CC1)c1ccc(Cl)cc1
0%	Cn1c2ccccc2c2ncn(Cc3ccc(F)cc3)c(=O)c21
10%	O=C(NCc1ccc(Cl)cc1)C1CCN(C(=O)c2ccco2)CC1
-16%	CCCCNC(=O)C1CC(c2ccccc2[N+](=O)[O-])=NO1 (stereo not drawn)
2%	N#CC(=C=[N-])C1=C(C#N)C(c2ccccc2F)C([n+]2ccccc2)C(O)(C2CC2)N1 (stereo not drawn)
7%	O=C(C1=C(O)C(=O)N(CC2CCCO2)C1c1ccccc1Cl)c1ccco1 (stereo not drawn)
6%	O=C(CN1C(=O)NC2(CCCCC2)C1=O)Nc1ccc(S(=O)(=O)N2CCOCC2)cc1
-8%	COC(=O)C(Cc1cnc(Cl)s1)(C(=O)OC)c1ccc([N+](=O)[O-])cc1[N+](=O)[O-]
0%	CC(C)N(C)Cc1nnnn1CC(=O)N(C)Cc1ccc(F)cc1
6%	COc1ccccc1N(CC(=O)N/N=C/c1ccc(SC)cc1)S(C)(=O)=O
-5%	C=CCC(C#N)(c1ccc(OC)c(OC)c1)c1cnccn1 (stereo not drawn)
?	CC(=O)C1C(c2ccc(F)cc2)C2C(C)=NN=C2CC1(C)O (stereo not drawn)
21%	Cc1nnc(SCC(=O)NC(C)(C)C)n1CCc1ccccc1
79µM*	Nc1ccc2c(c1)OC1(CCCC1)O2
4%	CCOC(=O)C1=C(C)N(CCCCCC(=O)O)C(=O)NC1c1cccc([N+](=O)[O-])c1 (stereo not drawn)
8%	CCOc1ccc(-c2cn3c(n2)sc2cc(C(=O)NC(C)C45CC6CC(CC(C6)C4)C5)ccc23)cc1 (stereo not drawn)
-28%	CCc1ccc2[nH]cc(S(=O)(=O)c3ccc(C)c(C)c3)c(=O)c2c1
-23%	CC1(C)CC(=O)C(C(O)c2ccc([N+](=O)[O-])cc2)C(C)(C)N1 (stereo not drawn)
-24%	Cc1ccc(OCC(=O)OC(C)CN2CCCCC2)cc1 (stereo not drawn)
5%	Cc1cccc(C(C)C)c1NC(=O)CN1C(=O)NC(Cc2ccccc2)C1=O (stereo not drawn)
-28%	COc1ccc(NC(=O)CCN2CCN(S(=O)(=O)c3ccc(OC)cc3)CC2)cc1
-13%	CC(C)(Oc1ccc(Cl)cc1)C(=O)OCC(=O)NCCc1ccc(S(N)(=O)=O)cc1
10%	CC(CNC(=O)Cn1c(-c2cccs2)cc2ccccc21)c1ccccc1 (stereo not drawn)
4%	Cc1ccc(C(=O)c2oc3ccccc3c2NC(=O)Cc2coc3c(C)c(C)ccc23)cc1
9%	Cc1cc(NCc2ccccn2)n2c(nc3ccccc32)c1C#N
14%	COc1cnc(N(C)C)nc1Sc1cccc(Cl)c1
-20%&-1%&-16%	O=c1cc(-c2ccccc2)oc2cccc(O)c12
-18%&2%	CCOC(=O)C1=C(C)NC(C)=C(C(=O)OCC)C1C(=O)OCC(=O)NC(C)C
-13%	Cc1ccc(S(=O)(=O)CC(=O)N2CCN(c3ccc(F)cc3)CC2)cc1
-5%	CC(Oc1ccc(Cl)cc1Cl)c1ccnc2nc(N3CCOCC3)nn12 (stereo not drawn)
-8%	C1=NN(c2ccccc2)C=NN1c1ccccc1
-8%	Cc1ccc(OCCNc2cc(N3CCN(CCO)CC3)ccc2[N+](=O)[O-])cc1C
-3%	O=C(CSc1nc(-c2cccs2)nc2cc(=O)[nH]n12)Nc1ccccc1F
-7%	Cc1ccc2c(c1)N(CC(=O)N1CCC(C)CC1)C(=O)c1cccnc1O2
18%	CCOC(=O)c1sc2ncnc(OC)c2c1C
16%	COc1ccccc1N1CCN(C(=O)c2cc(-c3cccc(Cl)c3)on2)CC1
-17%	O=CNc1ccc2c(c1)Cc1cccc(NC=O)c1-2
-6%	COc1cc(OC)c2c(c1C(CCN1CCN(c3ccccc3)CC1)c1ccc(N(C)C)cc1)OC(=O)CC2c1ccc(N(C)C)cc1 (stereo not drawn)
-11%	Cc1ccc(-c2nc3cccnc3s2)cc1NS(=O)(=O)c1cccs1

Next part
VDR inhibitor	Structure
45µM*	O=C(O)c1ccc(-c2ncc[nH]2)cc1
-4%	Cc1ccc(S(=O)(=O)C(C)C(=O)c2ccc3c(c2)OCCO3)cc1 (stereo not drawn)
5%	Cc1ccc(-c2nc3c(cnn3-c3ccccc3)c(=O)n2-c2cccc(Cl)c2)cc1
15%	CCCCNC(=O)CSc1nc2n[nH]c(C)c2c(=N)n1-c1cccc(C)c1
2%	Cc1cccc(Nc2nc(NCc3ccco3)nc(N3CCOCC3)n2)c1
6%	COc1ccc(Oc2coc3c(CN4CCOCC4)c(O)ccc3c2=O)cc1
-5%	COc1cc(S(=O)(=O)NC2CCCCC2C)ccc1F (stereo not drawn)

Already shown: entries from further up.
VDR inhibitor	Structure
-5%	CC(Oc1ccc(Cl)cc1Cl)c1ccnc2nc(N3CCOCC3)nn12 (stereo not drawn)
-8%	C1=NN(c2ccccc2)C=NN1c1ccccc1
-8%	Cc1ccc(OCCNc2cc(N3CCN(CCO)CC3)ccc2[N+](=O)[O-])cc1C
-3%	O=C(CSc1nc(-c2cccs2)nc2cc(=O)[nH]n12)Nc1ccccc1F
-7%	Cc1ccc2c(c1)N(CC(=O)N1CCC(C)CC1)C(=O)c1cccnc1O2
18%	CCOC(=O)c1sc2ncnc(OC)c2c1C
16%	COc1ccccc1N1CCN(C(=O)c2cc(-c3cccc(Cl)c3)on2)CC1
-17%	O=CNc1ccc2c(c1)Cc1cccc(NC=O)c1-2
-6%	COc1cc(OC)c2c(c1C(CCN1CCN(c3ccccc3)CC1)c1ccc(N(C)C)cc1)OC(=O)CC2c1ccc(N(C)C)cc1 (stereo not drawn)
-11%	Cc1ccc(-c2nc3cccnc3s2)cc1NS(=O)(=O)c1cccs1
45µM*	O=C(O)c1ccc(-c2ncc[nH]2)cc1
-4%	Cc1ccc(S(=O)(=O)C(C)C(=O)c2ccc3c(c2)OCCO3)cc1 (stereo not drawn)
5%	Cc1ccc(-c2nc3c(cnn3-c3ccccc3)c(=O)n2-c2cccc(Cl)c2)cc1
15%	CCCCNC(=O)CSc1nc2n[nH]c(C)c2c(=N)n1-c1cccc(C)c1
2%	Cc1cccc(Nc2nc(NCc3ccco3)nc(N3CCOCC3)n2)c1
6%	COc1ccc(Oc2coc3c(CN4CCOCC4)c(O)ccc3c2=O)cc1
-5%	COc1cc(S(=O)(=O)NC2CCCCC2C)ccc1F (stereo not drawn)

From PubChem
